Assay outcomes from PubChem BioAssay.
Mtb MenB inh: inhibitors of Mycobacterium tuberculosis MenB enzyme; inhibition, %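 (about 12 µg/mL by stock and volumes)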; hit rate 0.43% among 100,000; P9WNP5; MenB enzyme assay, absorbance read-out; some hits fall short of the stated cut; AID 540299;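 active = mean of two replicates above 30%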;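 note: 0% = no compound and 100% = wells with inactive enzyme; the first replicate is given; strong numbers were not always called active; inactives centre near -10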
Target sequence (P9WNP5 whole entry, looked up): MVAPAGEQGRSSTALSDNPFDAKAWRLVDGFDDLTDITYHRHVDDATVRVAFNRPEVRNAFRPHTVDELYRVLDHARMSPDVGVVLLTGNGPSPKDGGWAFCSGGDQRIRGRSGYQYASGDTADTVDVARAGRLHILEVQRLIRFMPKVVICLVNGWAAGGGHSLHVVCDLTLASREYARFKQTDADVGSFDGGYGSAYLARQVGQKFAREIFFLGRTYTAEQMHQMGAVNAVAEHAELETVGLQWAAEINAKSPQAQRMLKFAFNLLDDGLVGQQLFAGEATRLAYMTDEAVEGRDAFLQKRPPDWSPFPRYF
Polio RdRp inh: poliovirus RNA polymerase inhibition. P03300. poliovirus polymerase elongation, fluorescence polarization; stronger effect = lower value. % elongation, % (compound at 16.7 µg/mL). hit rate 0.66% among 150,000. AID 588519; in the data active = % elongation below about 90%; note: some results filed as inactive read as strong as hits
Target sequence (P03300 1749-2209 limits assumed): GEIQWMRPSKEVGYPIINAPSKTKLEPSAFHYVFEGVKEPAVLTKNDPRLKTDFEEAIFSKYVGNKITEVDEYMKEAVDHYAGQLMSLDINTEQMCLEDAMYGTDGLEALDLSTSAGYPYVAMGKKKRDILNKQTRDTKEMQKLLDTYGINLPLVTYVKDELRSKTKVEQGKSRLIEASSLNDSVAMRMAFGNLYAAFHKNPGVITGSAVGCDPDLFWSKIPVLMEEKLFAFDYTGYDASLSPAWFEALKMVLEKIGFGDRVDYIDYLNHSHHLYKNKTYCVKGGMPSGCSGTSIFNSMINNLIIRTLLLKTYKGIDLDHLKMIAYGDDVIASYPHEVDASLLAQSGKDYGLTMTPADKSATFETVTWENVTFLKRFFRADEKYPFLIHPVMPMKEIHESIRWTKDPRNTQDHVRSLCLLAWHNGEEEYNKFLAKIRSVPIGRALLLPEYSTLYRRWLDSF
Mtb MbtI inh: blocks the Mycobacterium tuberculosis siderophore enzyme MbtI. purified MbtI enzyme, fluorescence intensity read-out. inhibition, %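 (about 17 µg/mL by stock and volumes)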. hit rate 0.89% among 100,000;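 active = above 50% in both replicates, above 80% if mildly self-fluorescent; inactive = the rest, strongly fluorescent compounds included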;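 note: 0% = mean of negative and 100% = mean of positive controls; one replicate is shown; some compounds called inactive have numbers as strong as hits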
Polio RdRp inh intensity: further read-out of Polio RdRp inh, marked with its call; % elongation; measured here: total intensity read-out; formula for this scale not given here;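 total fluorescence in place of polarization; lower means less elongation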
An asterisk follows results filed as active; / = no result given; & = joins results of further samples.

SMILES	Mtb MenB inh	Polio RdRp inh	Polio RdRp inh intensity	Mtb MbtI inh
O=C(Cn1cnc2scc(-c3ccc(Br)cc3)c2c1=O)N1CCNC1=O	-6	103	109	-17
CC(C)CN(CC(C)C)C(=O)CCN1C(=O)c2ccccc2C1=O	-2	101	112	/
CCOc1ccccc1C(=O)Nc1cccc(-c2ccc(N3CCOCC3)nn2)c1	-22	103	106	16
O=C(/C=C/c1cccc(Br)c1)N1CCc2ccccc21	/	103	107	-7
Cc1ccc(NC(=O)CC2C(=O)Nc3ccccc3N2C(C)C(=O)N2CCCCC2)c(C)c1 (configuration not stated)	-20	110	122	-15
CCOC(=O)N1CCc2c(sc(NCc3cccnc3)c2C(=O)Nc2ccc(OC)cc2OC)C1	-19	103	98	55
Cc1cc(C(=O)Nc2cccc(COC(=O)c3cc(C)on3)c2)no1	-18	103	104	-11
CCNS(=O)(=O)c1ccc(NC(=O)c2c(-c3ccccc3)noc2C)cc1	-30	108	101	-8
CCOC(=O)c1ccc(NS(=O)(=O)N2CCOCC2)cc1	6	/	/	14
Cn1nc(C(=O)OCC(=O)NC2CC2)c2ccccc2c1=O	-9	103	104	24
CCn1c(SCC(N)=O)nc2ccccc2c1=O	-44	107	98	-12
CCOC(=O)c1oc2ccccc2c1NC(=O)CC	-7	102	102	-6
O=C(N1CCCc2ccccc21)N1c2ccccc2Sc2ccccc21	-24	101	102	-4
COc1ccc(CC(=O)Nc2c(C)nc3cc(C)ccn3c2=O)cc1	-17	107	109	2
O=C(O)Cn1nnc(-c2ccncc2)n1	-46	102	102	35
CCOC(=O)c1cc(-c2nnc(-c3cccc(C)c3)o2)c(C)nc1C	-4	104	105	7
CCCCn1c2ccccc2c2nnc(SC(C)C(=O)OC)nc21 (configuration not stated)	-12	103	100	-7
CC1=NN(C(N)=S)C(=O)C1	3	100	221	/
COCCNC(=O)Cc1ccccc1OC	-14	99	103	-9
Cc1cc(F)c(F)c(C(=O)n2ccnc2)c1Cl	8	103	98	/
COc1cccc(N=C=S)c1	-4	102	104	-6
CN(C)Cc1ccc(C(=O)Oc2ccc(C(C)(C)C)cc2)cc1	11	104	96	/
CN(C)C(CNC(=O)Nc1ccccc1)c1cccs1 (configuration not stated)	-25	102	107	-9
CCN(CC)CCOc1ccccc1N	-8	99	102	-2
CCCCN(C(=O)c1cnc2n(c1=O)CCS2)c1ccccc1	-13	101	102	-4
Cc1cc(C(=O)Nc2cccnc2)nn1C(C)(C)C	-7	99	100	-6
CC(C)C(=O)N=C1SC2CS(=O)(=O)CC2N1CCc1ccccc1 (configuration not stated)	-25	103	106	-14
Cc1ccc(S(=O)(=O)N(CCC(=O)O)c2ccccc2)cc1	-12	98	104	-14
Cc1ccc(C2(CC(=O)Nc3ccccc3C)CCOC(C)(C)C2)cc1 (configuration not stated)	-13	110	114	/
Cc1nn(-c2ccccc2)c2sc(C(=O)NN3CC(O)=C(c4ccccc4)C3=N)cc12	-17	107	108	4
Cc1ccc(-c2noc(CNC(=O)NC3CCCCC3)n2)cc1	24	103	99	2
CCCc1n[nH]c(=S)s1	-5	87*	89*	89*
C=CCOc1cccc(C(=O)Nc2ncn[nH]2)c1	-14	102	100	-15
COc1cccc(NCc2ccc(O)c3ncccc23)c1	-19	147	172	/
O=C(NCN1CCN(Cc2ccccc2)CC1)c1ccccc1	-1	103	108	/
COC(=O)N1CCC(=O)Nc2ccccc21	-8	99	98	/
Fc1ccc(/C=N/c2nnc3nc[nH]n23)cc1	-4	88*	90*	/
CC1=CC(=N/C(C)=N/S(=O)(=O)c2ccc(C)cc2)C=C(C)C1=O	3	105	98	86*
CCn1c(C(=O)O)c(CNC2CCCC2)c2ccc(C)cc21	0	109	125	-3
Cc1cc2ncn(CCC(=O)Nc3ccccc3F)c2cc1C	-29	106	101	-8
O=C(/C=C/c1ccc(Cl)cc1)N1CCN(c2ccccc2)CC1	-33	98	101	-1
O=C(CCN1C(=O)C2C3C=CC(C3)C2C1=O)NC1CCCCC1 (configuration not stated)	-2	101	101	4
O=C(COC(=O)c1ccccc1Sc1ncnc2sc3c(c12)CCC3)NCc1ccco1	-19	105	110	2
NC(=O)c1cc2cc(Br)ccc2o1	2	105	107	5
O=C(CC1SC(=NC2CC2)NC1=O)NCc1ccccc1 (configuration not stated)	-24	102	100	-12
O=C(Nc1nnc(-c2ccc3c(c2)OCCO3)o1)c1ccc(NS(=O)(=O)c2ccccc2)cc1	-48	99	103	23
CC12Nc3ccccc3C1(C)CCO2 (configuration not stated)	22	101	113	1
CCOC(=O)c1[nH]c2ccc(Br)cc2c1C	-4	101	105	-3
Clc1ccc(/C=N/N2CCCCC2)cc1	1	109	114	-14
Cc1ccc(Cl)cc1NC(=O)Cn1cnc2c(cnn2C)c1=O	1	103	98	-11
CC(CC(=O)N1CCOCC1)c1ccccc1 (configuration not stated)	8	104	106	-5
Cc1ccccc1-c1nc2cc(NC(=O)c3cccc(F)c3)ccc2o1	-66	104	102	58
O=C(O)CCc1nc2c3c4c(sc3ncn2n1)CCCC4	-2	99	103	1
N#C/C(=C/c1ccc(-c2cccc(C(F)(F)F)c2)o1)c1ccc(C#N)cc1	-64	100	110	-10
CC1CCP(=S)(N(C)C)O1 (configuration not stated)	-8	100	102	43
Cn1c(=NC(=O)CCS(=O)(=O)c2ccc(F)cc2)sc2cc(F)ccc21	-1	102	109	6
CC1CCN(C(=O)COC(=O)COc2ccccc2-c2ccccc2)CC1	/	101	106	-6
COc1ccc(-c2nn(CN3CCOCC3)c(=S)n2-c2ccccc2)cc1OC	-6	101	103	-14
CC(C)(C)OC(=O)CN1c2cccc3cccc(c23)S1(=O)=O	3	102	102	-51
CNCC(O)C(O)C(O)C(O)CO (configuration not stated)	0	101	101	-9

Going on with the list:
SMILES	Mtb MenB inh	Polio RdRp inh	Polio RdRp inh intensity	Mtb MbtI inh
CCCCn1c(=O)c2oc3ccccc3c2n(Cc2cc(C)ccc2C)c1=O	-24	105	99	13
CCOC(=O)C(C#N)c1nc2ccccc2nc1N1CCN(C(=O)c2ccco2)CC1 (configuration not stated)	-22	110	108	9
CCOC(=O)/C=C(\C)N1CCOCC1	-7	108	117	-11
CC1(C)C(=O)OC(c2c(F)c(F)c(F)c(F)c2F)C2(CCCCC2)C1=O (configuration not stated)	-22	101	103	-18
CCOCC(=O)OCc1ccc(Cl)cc1	/	102	102	-3
Clc1cc(Cl)cc(OCc2nc(-c3cc(-c4ccccc4)no3)cs2)c1	-5	99	99	-5
COc1ccc(CN(C)C(=O)CN2C(=O)C3CC=CCC3C2=O)cc1OC (configuration not stated)	-22	101	100	-3
COc1ccc(-c2nonc2NC(=O)c2ccccc2)cc1	-18	104	100	3
COc1cc(NC(=O)C2CCCN2C(=O)C2CCC(C)CC2)cc(OC)c1OC (configuration not stated)	-5	98	94	6
C/C=C/C/C=C/CCC(=O)[C@H]1O[C@H]1C(N)=O	12	103&98	102&97	5
COC(=O)c1csc(S(=O)(=O)N=S(C)(=O)c2cccs2)c1OC (configuration not stated)	-41	102	101	-2
CCOCNC(=O)Nc1ccc(Cl)cc1	9	102	99	-1
C/C(=N\Nc1cccc2cccnc12)C(C)(C)C	-29	104	101	25
CN(C)CCNc1cc(N2CCN(C(=O)c3ccco3)CC2)c2noc3c2c1C(=O)c1ccccc1-3	11	75	196	-3
CC(C)c1cc(N2CCCC2)n2c(nc3ccccc32)c1C#N	-18	100	103	8
CC(C#N)(NC(=O)CN1CCN(c2cccc(C(F)(F)F)c2)CC1)C1CC1 (configuration not stated)	-22	105	98	-11
Cc1ccc(OC(=O)c2cc(S(=O)(=O)N3CCCC3)ccc2C)cc1C	-45	101	102	3
CCOC(=O)CN1N=C(c2ccc(Cl)cc2)CCC1=O	5	102	102	-1
O=C(CN1CCCC1)N1c2ccccc2C=Cc2ccccc21	11	101	102	6
COc1ccc(-n2cnc3cc(C(=O)N4CCOCC4)ccc32)cc1	7	101	104	-6
CC(CC(=O)O)n1nnc2ccccc21 (configuration not stated)	-7	102	115	/
COc1ccc(CNC(=O)C2=C(C(=O)O)CCCC2)cc1	20	96	95	3
CC(C)c1ccc2nc(SCC(=O)N3CCCC3)c(C#N)cc2c1	15	106	106	-7
CCOC(=O)Cc1ccc(NC(=O)C(F)(F)C(F)F)cc1	-26	103	103	-15
c1cc(-c2nnn(C3CCCCC3)c2NC2CCCCC2)[nH]n1	-13	106	109	/
CC12CN3CC(C)(CN(C1)C3c1ccccc1)C2O (configuration not stated)	4	100	102	-4
O=C(COC(=O)c1ccccc1O)NC12CC3CC(CC(C3)C1)C2	/	101	101	-25
Cc1ccccc1C(=O)Nc1ccccc1	/	103	106	-8
CS(=O)(=O)N1CCCC(C(F)(F)F)C1 (configuration not stated)	-7	106	113	-15
CCc1noc(C)c1C(=O)OCC(=O)c1ccc2ccccc2c1	-20	105	112	1
CCCN(C(=O)Cc1coc2cc(OC)ccc12)C1CCS(=O)(=O)C1 (configuration not stated)	-21	101	102	10
CNS(=O)(=O)c1cccc(C(=O)NCCCn2nc(C)cc2C)c1	-23	98	101	-5
Cc1cccc(NC(=O)C(CC(C)C)NS(=O)(=O)c2ccc3c(c2)oc(=O)n3C)c1 (configuration not stated)	-4	104	107	-9
CCSC1=NC2(CCN(C(=O)Nc3ccccc3)CC2)N=C1c1ccccc1	2	102	103	-4
CN(C)/C=C1/C(=O)c2sccc2N(C)S1(=O)=O	-12	102	112	-4
COc1ccc(Cl)c(NCCC(=O)O)c1	-1	100	101	11
O=C(NCc1ccccc1Cl)C1=CSCCO1	1	101	97	22
COc1ccc(CCN=C(C)C2=C(O)COC2=O)cc1OC	5	98	99	9
N#CC1=C2SCN(C3CCCCC3)CN2C(=O)CC1c1ccccc1 (configuration not stated)	-13	101	102	73*
CSc1ncccc1C(=O)N(Cc1ccccc1)C1CCS(=O)(=O)C1 (configuration not stated)	-18	100	99	-7
O=C(CSc1nnc(-c2ccncc2)n1-c1ccccc1)c1ccccc1	14	101	103	0
CO[C@H]1O[C@H](CO)C(O[C@@H]2OC(C(=O)O)[C@@H](O[C@H]3O[C@H](COS(=O)(=O)O)C(O[C@@H]4OC(C(=O)O)[C@@H](O[C@H]5O[C@H](CO)C(O[C@@H]6OC(C(=O)O)[C@@H](O[C@H]7O[C@H](COS(=O)(=O)O)C(O[C@@H]8OC(C(=O)O)=C[C@H](O)C8OS(=O)(=O)O)[C@H](O)[C@H]7NC(C)=O)[C@H](O)[C@H]6O)[C@H](O)[C@H]5NC(C)=O)[C@H](O)[C@H]4O)[C@H](O)[C@H]3NC(C)=O)[C@H](O)[C@H]2O)[C@H](O)[C@H]1NC(C)=O (some centres not stated)	-16	99	91	-5
Cc1ccc(-c2nc(NC(=O)C(C(C)C)N3C(=O)c4ccccc4C3=O)sc2C)cc1 (configuration not stated)	-20	99	93	40
CC1(C)Cc2ccccc2C(N)=C1C#N	-19	102	102	-4
CCn1c(C)nc2cc(C(=O)N3N=CCC3(O)C(F)(F)F)ccc21 (configuration not stated)	-4	104	113	14
O=C(CN1CCN(Cc2ccc(Cl)cc2)C1=O)NCC1COc2ccccc2O1 (configuration not stated)	-15	106	107	-4
COC(=O)c1cc(S(=O)(=O)N(CC(C)C)CC(C)C)c[nH]1	-8	100	100	-15
CCC1(C)N([O-])C(C)=C(c2ccccc2)[N+]1=O (configuration not stated)	-15	103	105	15
Cc1cc(C)nc(-n2nc(C)cc2NC(=O)CNCc2ccccc2)n1	-7	113	113	-7
C=CCN(CC=C)C(=O)CSC1=C(C#N)C(C)(C)C(C#N)C(=O)N1 (configuration not stated)	8	111	113	1
CCOc1ccc2c(c1)C(C)=CC(C)(C)N2C(=O)C(C)N1C(=O)c2ccccc2C1=O (configuration not stated)	-7	102	100	-3
O=C(CN1C(=O)c2cccnc2Oc2ccc(Cl)cc21)Nc1ccc(F)cc1	-3	108	104	65

Rows are unselected (roughly 1.8% active in at least one column).
